# CFTR F508del: total CFTR protein upregulators, primary screen, cell-based, HeLa F508del-CFTR, immunofluorescence, viability (AID 1224863). Cystic fibrosis transmembrane conductance regulator (Homo sapiens). HeLa F508del-CFTR, immunofluorescence total CFTR, 24 h; by the record results were divided by relative cell number; some inactives read as strong as hits. calls, or highest fold increase where a dose series was run. 0.1% of 10,000 active; in the data nearly all actives have a first-pass fold increase above 1.5; a few of its hits are not listed in these tables;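 note: total CFTR protein by anti-CFTR immunofluorescence in fixed cells; first pass at 25 µM or 10 µg/mL by library and series up to twice that; 1 = untreated cells; first-pass hits also needed half or more of the cells alive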
# CFTR F508del fold 25 µM: also measured in CFTR F508del; calls as there; fold increase; measured here: primary screen single dose 25 uM; library dosed in µM
# CFTR F508del fold 10 ug/mL: recorded beside CFTR F508del, whose call it bears; fold increase; measured here: primary screen 10 ug/mL
# CFTR F508del viability 25 µM: also measured in CFTR F508del; calls as there; viability, %; measured here: primary viability 25 uM; library dosed in µM;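 0% = killed and 100% = untreated cells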
# CFTR F508del viability 10 ug/mL: also measured in CFTR F508del; calls as there; viability, %; measured here: primary viability 10 ug/mL;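 0% = killed and 100% = untreated cells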
# An asterisk follows results filed as active; i = inactive; & = joins results of further samples. Some of the compounds tested; count on the stated rates, not on these rows.
SMILES,CFTR F508del,CFTR F508del fold 25 µM,CFTR F508del viability 25 µM,others
CCC(=O)O[C@]1(C(=O)SCF)[C@H](C)CC2C3CC(F)C4=CC(=O)C=C[C@]4(C)C3(F)[C@@H](O)C[C@@]21C (stereo partly specified),i,1.06,97.0,
O=C(O)CN1C(=O)c2cccc3cccc(c23)C1=O,i,0.95,88.0,CFTR F508del fold 10 ug/mL=1.04;CFTR F508del viability 10 ug/mL=104.0
CC(Oc1c(Cl)cccc1Cl)C1=NCCN1 (stereo unspecified),i,1.08&1.02,91.0&92.0,
Nc1cc(-c2ccncc2)c[nH]c1=O,i,0.64&1.04,28.0&95.0,
CCNC(=O)/C=C/c1cccc(Br)c1,i,1.11,98.0,
c1ccc2c(CC3=NCCN3)cccc2c1,i,1.02&1.01&1.12,92.0&101.0&103.0,
O=c1cc[nH]c(=O)[nH]1,i,1.05,95.0,
CCCC(=O)O,i,0.95,102.0,
C[C@H]1COc2c(N3CCN(C)CC3)c(F)cc3c(=O)c(C(=O)O)cn1c23,i,1.07&0.9&1.11,86.0&98.0&103.0,
COc1cc(N)c(Cl)cc1C(=O)NC1CCN(CCCOc2ccc(F)cc2)CC1OC (stereo unspecified),i,1.01,102.0,

# Structures from the list above containing a Cl atom:
SMILES,CFTR F508del,CFTR F508del fold 25 µM,CFTR F508del viability 25 µM,others
CC(Oc1c(Cl)cccc1Cl)C1=NCCN1 (stereo unspecified),i,1.08&1.02,91.0&92.0,
COc1cc(N)c(Cl)cc1C(=O)NC1CCN(CCCOc2ccc(F)cc2)CC1OC (stereo unspecified),i,1.01,102.0,

# In the list so far, these have a carbonyl joined to an NH by a bond outside any ring:
SMILES,CFTR F508del,CFTR F508del fold 25 µM,CFTR F508del viability 25 µM,others
CCNC(=O)/C=C/c1cccc(Br)c1,i,1.11,98.0,
COc1cc(N)c(Cl)cc1C(=O)NC1CCN(CCCOc2ccc(F)cc2)CC1OC (stereo unspecified),i,1.01,102.0,

# The listing picks up, repeating the 2 entries before the break.
SMILES,CFTR F508del,CFTR F508del fold 25 µM,CFTR F508del viability 25 µM,others
C[C@H]1COc2c(N3CCN(C)CC3)c(F)cc3c(=O)c(C(=O)O)cn1c23,i,1.07&0.9&1.11,86.0&98.0&103.0,
COc1cc(N)c(Cl)cc1C(=O)NC1CCN(CCCOc2ccc(F)cc2)CC1OC (stereo unspecified),i,1.01,102.0,
Cc1onc(-c2ccccc2Cl)c1C(=O)N[C@@H]1C(=O)N2[C@@H]1SC(C)(C)[C@@H]2C(=O)O,i,1.13&0.99,103.0&79.0,
COc1ccc(-c2cc(=O)c3c(O)cc(O[C@@H]4O[C@H](CO[C@H]5O[C@H](C)[C@@H](O)[C@H](O)[C@@H]5O)[C@@H](O)[C@H](O)[C@H]4O)cc3o2)cc1O,i,1.13,90.0,
Cc1nnc(NS(=O)(=O)c2ccc(N)cc2)s1,i,0.94,94.0,
Nc1nccs1,i,1,83.0,
CCC[C@H](N[C@@H](C)C(=O)N1[C@H](C(=O)O)C[C@@H]2CCCC[C@@H]21)C(=O)OCC,i,1.03,102.0,
O=C(O)COC(=O)Cc1ccccc1Nc1c(Cl)cccc1Cl,i,1.07&1.05,106.0&103.0,
CCCOc1ccccc1-c1nc2n[nH]nc2c(=O)[nH]1,i,0.99&0.9,87.0&111.0,
CC[C@]1(O)CC2CN(CCc3c([nH]c4ccccc34)[C@@](C(=O)OC)(c3cc4c(cc3OC)N(C)[C@H]3[C@@](O)(C(=O)OC)[C@H](OC(C)=O)[C@]5(CC)C=CCN6CC[C@]43[C@@H]65)C2)C1 (stereo partly specified),i,0.78&0.86,67.0&88.0,
O=C(CCCl)NCCc1ccccc1,i,0.98,88.0,
NS(=O)(=O)c1cc2c(cc1C(F)(F)F)NC(Cc1ccccc1)NS2(=O)=O (stereo unspecified),i,1.18,115.0,
O=C1NCC2(CCN(CCc3ccccc3)CC2)O1,i,1.1,87.0,
COc1cc2nc(N3CCN(C(=O)C4COc5ccccc5O4)CC3)nc(N)c2cc1OC (stereo unspecified),i,1.02&0.97&1.05,91.0&79.0&83.0,
CN(C)CCCN1c2ccccc2Sc2ccccc21,i,1.19,108.0,
CC(=O)O[C@]1(C(C)=O)CC[C@H]2[C@@H]3C=C(Cl)C4=CC(=O)[C@@H]5C[C@@H]5[C@]4(C)[C@H]3CC[C@@]21C,i,0.87,87.0,
N=C(N=C(N)N)N1CCOCC1,i,1&1.09&1.01,91.0&80.0&100.0,
CCC1C(=O)OCC1Cc1cncn1C (stereo unspecified),i,1.01&0.95,106.0&86.0,
C[C@]12CC3CC(N)(C1)C[C@@](C)(C3)C2,i,0.96,105.0,
O=C(OC1CC2CC3C[C@@H](C1)N2CC3=O)c1c[nH]c2ccccc12 (stereo partly specified),i,1.08,107.0,
Cc1cc2c(s1)Nc1ccccc1N=C2N1CCN(C)CC1,i,1.31&1.05&0.99,97.0&94.0&101.0,
COc1ccccc1OCC(O)COC(N)=O (stereo unspecified),i,1.1&0.97,109.0&109.0,
Cc1cn([C@@H]2C[C@@H](O)[C@H](CO)O2)c(=O)[nH]c1=O,i,0.99,93.0,
COc1ccc(CN(CCN(C)C)c2ccccn2)cc1,i,0.83&1.05,91.0&108.0,
CC(=O)NCCCCCC(=O)O,i,1.08,85.0,
CN1CCC(=C2c3ccccc3CCc3sccc32)CC1,i,1.04,109.0,
CC1(C)OC(=O)C(OCC2CC2)=C1c1ccc(S(C)(=O)=O)cc1,i,1.01,99.0,
CC1=NN(c2ccccc2)C(=O)C1,i,1.02,103.0,

# Sorted by SMILES length (smallest number first): some entries from above
SMILES,CFTR F508del,CFTR F508del fold 25 µM,CFTR F508del viability 25 µM,others
CC(=O)NCCCCCC(=O)O,i,1.08,85.0,
CN1CCC(=C2c3ccccc3CCc3sccc32)CC1,i,1.04,109.0,
Cc1cn([C@@H]2C[C@@H](O)[C@H](CO)O2)c(=O)[nH]c1=O,i,0.99,93.0,

# Source: PubChem BioAssay
